Compound activity deposited in PubChem by National Center for Advancing Translational Sciences (NCATS).
HPGD inh – qHTS Assay for Inhibitors of HPGD (15-Hydroxyprostaglandin Dehydrogenase); purified HPGD, NADH fluorescence kinetic, PGE2 substrate; Potency, µM, without a hit: at the top dose activity change, negative = inhibition, most hits filed as inhibitors; hit rate 4.3% among 150,000; active = well fitted inhibition curve with a large enough effect (not every such curve was filed as active); inconclusive = small, poorly fitted or top-dose-only effect, or another doubt; inactive = no such curve, though single readings can be large or run the other way;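 also: top concentration of the series not given in the record; plate controls included wells without enzyme; inactives centre near -10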
Target sequence (P15428 whole entry, looked up): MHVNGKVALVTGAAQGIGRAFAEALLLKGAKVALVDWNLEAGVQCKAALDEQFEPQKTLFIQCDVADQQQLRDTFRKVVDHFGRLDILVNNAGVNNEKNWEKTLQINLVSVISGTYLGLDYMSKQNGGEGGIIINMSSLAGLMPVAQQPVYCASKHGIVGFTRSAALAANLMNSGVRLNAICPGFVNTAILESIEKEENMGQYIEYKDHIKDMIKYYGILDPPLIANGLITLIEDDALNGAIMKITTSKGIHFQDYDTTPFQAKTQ
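NADH formation kinetics: reaction with 30 uM PGE2 and 1 mM NAD+ (final), 20 nM enzyme, Tris-HCl pH 8 with Tween 20, after 15 min compound preincubation at room temperature. Fluorescence change, last versus first of five reads.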
Starred values were filed as active, the others as inactive; u = inconclusive; & = joins results of further samples. % is scaled to controls: 0 for no effect and ±100 for the full control effect; potency is read from the fitted curve at half-maximal effect. Only part of the results is shown, so the mix of outcomes need not match the whole.

HPGD inh,Compound
-12%,O=C(Nc1nc(-c2ccccc2)cs1)C1CCCN(S(=O)(=O)c2ccccc2)C1 (stereo not given)
-12%,COc1ccc(C(=O)N/N=C2/SCC(=O)N2Cc2ccc3c(c2)OCO3)cc1OC
-3%,Cc1cc(OCCCn2ccnc2)cc(C)c1Cl
-15%,Cn1ccnc1SCC(=O)Nc1ccc2ccccc2c1
-7%,COC(=O)CC1c2ccccc2C(Cc2ccc(OC)cc2)=C(C)N1C(=O)OC (stereo not given)
28µM*,COC(=O)c1c(NC(C)=O)sc2c1CCCCC2
-14%,Clc1ccc(-c2ccc(/C=N/Nc3nncc(-c4ccccc4)n3)o2)cc1
-5%,O=C(CCCCCN1C(=O)CCC1=O)Nc1ccc(Cl)c(C(F)(F)F)c1
-13%,COc1ccccc1N(C(=O)CNS(=O)(=O)c1ccccc1)C(C(=O)NCc1ccco1)C(C)C (stereo not given)
u,CC1=C(C(N)=O)C(c2cccnc2)n2nc(SCc3ccccc3Cl)nc2N1 (stereo not given)
u,O=C(Cc1cccc2ccccc12)N/N=C/c1ccc(Sc2nc3ccccc3s2)o1
-4%,COCC(=O)NNS(=O)(=O)c1ccccc1[N+](=O)[O-]
-4%,CCOC(=O)N1CCN(C(=O)CN(c2cccc(C(F)(F)F)c2)S(C)(=O)=O)CC1
-1%,O=C(NCCCn1ccnc1)Nc1ccc(Cl)cc1
-11%,Cc1nn(C)c(C)c1NC(=O)CN1CCC(O)(c2ccc3c(c2)OCO3)CC1
0%,COc1ccc(CCN2C(=O)CC(N3CCOCC3)C2=O)cc1 (stereo not given)
-29%,Cc1ccccc1Nc1ncnc2c1cnn2-c1ccccc1
-18%,CCC(=O)c1cc(-c2nc3ccccc3n2C)n(C)c1
-20%,COc1cccc(C(=O)Nc2ncc3c(n2)CC(c2ccc(OC)cc2OC)CC3=O)c1 (stereo not given)
16µM*,Cc1cc(C)n(-c2nc3c(c(=O)[nH]c(=O)n3C)n2Cc2cccc(Br)c2)n1
-5%,COCCN1C(=O)C(CC(=O)Nc2ccc(C(C)=O)cc2)SC1=Nc1ccccc1 (stereo not given)
u,Cc1c(-c2ccccc2)c(P(=O)(N2CCOCC2)N2CCOCC2)c2ccccn12
u,CC(C)NC(=O)c1cc2nc(-c3ccco3)cc(C(F)(F)F)n2n1
0%,CO/N=C/NC(=O)c1c(OC)ccnc1Oc1cccc(C(F)(F)F)c1
-1%,Cc1nn(C)cc1C1Nc2ccccc2C(=O)N1O (stereo not given)
-6%,CCOc1ccccc1N
-14%,Cc1ccc(-n2c(Cc3cccn3C)nnc2SCC(=O)N2CCN(c3ccccc3)CC2)cc1
-4%,COc1ccc(/C=N/NC(=O)CC2N=C(Cc3ccccc3)NNC2=O)cc1OC (stereo not given)
-12%,COc1ccc(O[C@H]2C=C[C@@H](c3ccccc3)O[C@@H]2COC(=O)CCC(C)=NO[C@@H]2O[C@H](COC(C)=O)[C@@H](OC(C)=O)[C@H](OC(C)=O)[C@H]2OC(C)=O)cc1
6%,O=C1CCC(C(=O)O)(c2ccccc2)C1 (stereo not given)

6 successive records out of the list so far, quoted:
HPGD inh,Compound
-1%,Cc1nn(C)cc1C1Nc2ccccc2C(=O)N1O (stereo not given)
-6%,CCOc1ccccc1N
-14%,Cc1ccc(-n2c(Cc3cccn3C)nnc2SCC(=O)N2CCN(c3ccccc3)CC2)cc1
-4%,COc1ccc(/C=N/NC(=O)CC2N=C(Cc3ccccc3)NNC2=O)cc1OC (stereo not given)
-12%,COc1ccc(O[C@H]2C=C[C@@H](c3ccccc3)O[C@@H]2COC(=O)CCC(C)=NO[C@@H]2O[C@H](COC(C)=O)[C@@H](OC(C)=O)[C@H](OC(C)=O)[C@H]2OC(C)=O)cc1
6%,O=C1CCC(C(=O)O)(c2ccccc2)C1 (stereo not given)

Further entries
HPGD inh,Compound
-15%,Cc1ccc(/C=N/NC(=O)c2cc3c(ccc4ccccc43)o2)cc1[N+](=O)[O-]
-6%,Oc1ccc(C2Oc3cc(O)cc(O)c3CC2O)cc1 (stereo not given)
u,Cc1ccc(/C=C/c2ccc(=O)n(Cc3ccccc3Cl)n2)cc1
-7%,O=c1/c(=C\c2cccnc2)sc2nc3ccccc3n12
-8%,O=C(Nc1ncc(Cc2ccccc2)s1)C1COc2ccccc2O1 (stereo not given)
-15%,Cn1c(CNS(=O)(=O)c2ccc(F)cc2)n[nH]c1=S
-1%,CCC(C)(C(=O)NC1CCCCC1)N(C)C(=O)c1ccc2c(c1)OCO2 (stereo not given)
-14%,O=C(/C=C/c1ccc([N+](=O)[O-])cc1)OCC(=O)N1c2ccccc2Sc2ccccc21
-17%,COc1ccc(OCC(=O)Nc2ccc3c(c2)nc(CN2CCCC2)n3C)cc1
-11%,COc1ccc(Cn2nnnc2C(c2ccccc2OC)N2CCC(C(N)=O)CC2)cc1 (stereo not given)
-2%,COC(=O)C(CC(=O)Nc1cc(C)ccc1C)Nc1ccccc1OC (stereo not given)
-10%,Cc1cccc(NC(=O)CN2C(=S)NC(C)(C)CC2C)c1C (stereo not given)
u,O=c1nc2n(c3c1oc1ccccc13)Cc1ccccc1-2
u,Cc1nc(N2CCOCC2)c2nc(-c3ccccc3)n(CCN3CCCC3)c2n1
-18%,CSC1=N/C(=C\c2ccc(C)cc2)C(=O)S1
-2%,CCC(c1nnnn1Cc1ccco1)N1CCC(C(N)=O)CC1 (stereo not given)
-4%,CC(C)CN1CCCC2(CCN(C(=O)c3cnccn3)CC2)C1
-12%,CCOc1cc(CNc2ccc(N3CCN(C(C)=O)CC3)cc2)cc(Br)c1OC
u,Cc1snc(SCC(=O)c2ccc(Cl)cc2)c1C#N
-1%,CC(OC(=O)CCCN1C(=O)c2ccccc2C1=O)C(=O)Nc1ncc(Cl)cc1Cl (stereo not given)
14µM*,CC1CCN(C(=O)CSc2nc3ccccc3s2)CC1
3%,CC1(NC(=O)C23CC4CC(CC(C4)C2)C3)CCS(=O)(=O)C1 (stereo not given)
-11%,Cc1sc2nc(NCCO)[nH]c(=O)c2c1C
-16%,Cc1ccc2[nH]c(C)c(/C=N/Nc3nc4ccccc4s3)c2c1
-23%,CCOC(=O)c1sc(NC(=O)CSc2nnnn2-c2ccc(C)cc2C)nc1C
-5%,CCCn1c(C)nc2c(NCCCN(CC)CC)nc(C)nc21
-5%,Cn1c(C2=C(O)CN(c3ccc4c(c3)OCCO4)C2=N)nc2ccccc21
-23%,Cc1ccc(NC(=O)NC(=O)CN2C(=O)NC3(CCc4ccccc43)C2=O)c(C)c1 (stereo not given)
28µM*,O=C(N/N=C/c1ccncc1)c1cc([N+](=O)[O-])cc([N+](=O)[O-])c1O
-15%,CCc1ccc2nc3c(c(C(=O)O)c2c1)CCC3

Reprinted from the part before: 3 compounds; new compounds follow.
HPGD inh,Compound
-23%,Cc1ccc(NC(=O)NC(=O)CN2C(=O)NC3(CCc4ccccc43)C2=O)c(C)c1 (stereo not given)
28µM*,O=C(N/N=C/c1ccncc1)c1cc([N+](=O)[O-])cc([N+](=O)[O-])c1O
-15%,CCc1ccc2nc3c(c(C(=O)O)c2c1)CCC3
-5%,N#C/C(=C\c1ccc([N+](=O)[O-])cc1)c1nc(C2CC2)cs1
3%,Cc1ccc(S(=O)(=O)N[C@H](C(=O)N2CCC3(O)CCCCC3C2)c2ccccc2)cc1 (stereo not given in full)
-13%,NCCCc1ccc2oc3ccccc3c2c1
-9%,CCC(C)NC(=O)CSc1nc2ccsc2c(=O)n1NC(=O)c1ccccc1 (stereo not given)
-16%,CC(=O)n1c2ccccc2c2ccccc21
-7%,Cc1nc2ccccc2n1S(=O)(=O)c1ccc(S(=O)(=O)N2CCCCCC2)cc1
-15%,CCSc1cc(N2CC(C)OC(C)C2)nc(-c2ccccc2Cl)n1 (stereo not given)
4%,CN/C(=C\[N+](=O)[O-])NCCSCc1csc(CN(C)C)n1
u,CCCCC[n+]1ccn(-c2nc3ccccc3nc2[N-]S(=O)(=O)c2ccc(C)cc2)c1
-6%,CC(Oc1cccc(Cl)c1)C(=O)Nc1ccc([N+](=O)[O-])cn1 (stereo not given)
u,CCOC(=O)N1CCN(C(=O)Nc2ccc3nc(C)c(C)nc3c2)CC1
-6%,COc1ccc(C(=O)CSc2cc(C)nc3nc(C)nn23)cc1OC
-4%,CCC(C(=O)NC1CCCC1)N(Cc1cccs1)C(=O)Cn1nnc(-c2ccc(OC)c(OC)c2)n1 (stereo not given)
-4%,Cc1ccc(S(=O)(=O)/N=C(\c2ccc(F)cc2)n2c(C)nc3ccccc32)cc1
-20%,O=C(CSc1nc2ccccc2[nH]1)Nc1ccc2c(c1)CCC2
u,CC(=O)OC[C@H]1O[C@H](CCO/N=C(\C)CCN2CCCc3nc(C)c(C)cc32)C=C[C@@H]1OC(C)=O
11µM*,Cc1cc(C)nc(SCc2cc(=O)c(OC(=O)c3ccc(Cl)c([N+](=O)[O-])c3)co2)n1
-22%,CCCCN(CC)CCNC(=O)C1c2cc(OC)c(OC)cc2C(=O)N2CCc3ccccc3C12 (stereo not given)
-3%,COCCCN(C(=O)c1cccnc1SC)c1c(N)n(Cc2ccccc2)c(=O)[nH]c1=O
-12%&-2%,COc1ccc2c(c1)c(CC(=O)OCC(=O)O)c(C)n2C(=O)c1ccc(Cl)cc1
-1%,C[C@@](N)(Cc1c[nH]c2ccccc12)C(=O)O
u,Oc1ccc(Nc2nc(-c3ccc4ccccc4c3)cs2)cc1
-13%,Cc1cccc(N(CC(N)=O)C2SC(=O)N(c3ccccc3)C2=O)c1 (stereo not given)
-18%,COc1ccccc1N1CCN(C(=O)c2cc3c(s2)CCC3)CC1
-4%,NC(=O)c1ccc(C(=O)c2ccc([N+](=O)[O-])cc2)cc1
-4%,Oc1ccccc1Nc1ncnc2c1oc1ccccc12
-7%,COC(=O)c1ccc(N2C(=O)c3cc(N4CCOCC4)c([N+](=O)[O-])cc3C2=O)cc1
-16%,CCn1nc(NC(=O)c2ccncc2)c2cc3ccccc3nc21
-8%,CC1CCN(CCOCCOc2ccccc2-c2ccccc2)CC1
-7%,O=C(NCC1CCCO1)C1CCN(c2ccc(S(=O)(=O)N3CCCC3)cc2)CC1 (stereo not given)
-3%,CCC(=O)[C@@H](c1ccccc1)c1ccccn1
-7%,COC(=O)c1nn(-c2ccccc2)c(Sc2ccccc2)c1/C=N/O
0%&-2%,CO[C@@]12C[C@@H](COC(=O)c3cncc(Br)c3)CN(C)[C@H]1Cc1cn(C)c3cccc2c13
u,Cc1ccc(-c2nc3ccc(C(=O)O)cc3nc2-c2ccc(C)cc2)cc1
u,CC1(C)CC(=O)c2c(-c3cccs3)n[nH]c2C1
u,COc1cc(C2Nc3ccccc3C(=O)N2c2ccc3c(c2)OCCO3)ccc1OCC(C)C (stereo not given)
-7%,CN(C)c1cccc(N=C2C=C(N3CCOCC3)CC(C)(C)C2)c1
u,CCN(CC)c1ccc(-c2nn3c(-c4cccnc4)nnc3s2)cc1
-8%,COc1ccc(C2CC(=O)Oc3cc(O)ccc32)cc1 (stereo not given)
-18%,COC(=O)c1ccccc1N1C(=O)[C@@H]2C(c3ccc(Br)cc3)=NO[C@@H]2C1=O
-17%,CCSc1nnc(NC(=O)C(C)C)s1
-16%,Cc1ccc(COc2ccc(Br)cc2/C=N/O)cc1
-9%,COc1ccc(C(=O)/C=C/C(=O)N(Cc2ccc(F)cc2)C(C(=O)NC2CCCCC2)c2ccncc2)c(O)c1 (stereo not given)
-5%,Cc1c(C(=O)Nc2nc3ccccc3[nH]2)cccc1[N+](=O)[O-]
-12%,Cc1cc(C2(c3cc(C)c(NC(=O)CN4CCOCC4)c(C)c3)CCCCC2)cc(C)c1NC(=O)CN1CCOCC1
-2%,CCCCCc1nnc(NS(C)(=O)=O)s1
1%,Cn1c(=O)c2c(nc(N3CCCCC3)n2CCCNC2=NCCCC2)n(C)c1=O
-7%,Cc1ccc(N2CCN(CCc3nc4cc(NS(C)(=O)=O)ccc4n3C)CC2)cc1
-13%,COCCn1c(=O)c(C)nc2cnc(OCc3ccccc3)nc21
-9%,COC(=O)c1cc(NC(=O)CC2NCCNC2=O)cc(C(=O)OC)c1 (stereo not given)
-1%,CCCCC1(C(=O)OCC)CC(CN2CCOCC2)OC1=O (stereo not given)
-13%,Cc1cc(Nc2nc3ccccc3nc2Cl)n(-c2ccccc2C)n1
-8%,Cc1ccc(CN(c2ccc(C(=O)NCc3cccnc3)cc2)S(C)(=O)=O)cc1
10µM*,Cc1ccc(OCCOc2ccc(Br)cc2)c([N+](=O)[O-])n1
-15%,Cc1ccc(CSc2nc3ccccc3c(=O)n2Cc2ccco2)cc1
-2%,CN(C)C(CNC(=S)Nc1ccccc1)c1cccnc1 (stereo not given)
-1%,CC(C)(C)NC(=O)C(c1ccccc1)N(Cc1cccs1)C(=O)c1csnn1 (stereo not given)
-1%,c1n[nH]c(NC2=NCCC2)n1
16µM*,COc1ccc(CSc2nc(C)cc(=O)[nH]2)cc1Br
32µM*,CCn1cc(C(=O)NCc2ccccc2Cl)cn1

Fetched by structure from the entries so far (7):
HPGD inh,Compound
-13%,Cc1cc(Nc2nc3ccccc3nc2Cl)n(-c2ccccc2C)n1
0%&-2%,CO[C@@]12C[C@@H](COC(=O)c3cncc(Br)c3)CN(C)[C@H]1Cc1cn(C)c3cccc2c13
-1%,CC(C)(C)NC(=O)C(c1ccccc1)N(Cc1cccs1)C(=O)c1csnn1 (stereo not given)
-16%,Cc1ccc(COc2ccc(Br)cc2/C=N/O)cc1
32µM*,CCn1cc(C(=O)NCc2ccccc2Cl)cn1
-15%,Cc1ccc(CSc2nc3ccccc3c(=O)n2Cc2ccco2)cc1
-8%,COc1ccc(C2CC(=O)Oc3cc(O)ccc32)cc1 (stereo not given)

New compounds follow
HPGD inh,Compound
1%,COc1ccc(S(=O)(=O)N(C)CC(=O)O)cc1C
1%,NC(=O)C1CCN(C(c2ccccc2Cl)c2nnnn2CC2CCCO2)CC1 (stereo not given)
-16%,COC(=O)CSc1nc(SCc2ccccc2Cl)nc2c1CCCC2
-14%,COc1ccc(CNC(=O)NCc2ccc(OC)c(OC)c2)cc1OC
